# BJeLR viability: MLPCN primary cell-based screen for lethality selective to Ras in HRASV12 cells. BJeLR (HRASV12) viability, CellTiter-Glo ATP luminescence, 48 h; reference of the scale not given here. inhibition, % (concentration not given with the values). 0.17% of 300,000 active;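 active = replicate mean above 50%; inconclusive = above 50% but judged a plate artefact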;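 also: 50 nL library stock added to about 25 µL; numbers are from one replicate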
# RN4220 kill: growth inhibition of S. aureus RN4220, primary screen, OD600; 16 h; inhibition, % (test concentration not listed); 0.33% of 330,000 active;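 active = z-score of -3 or lower and OD600 up to 0.18 on both plates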;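 also: plate controls were untreated cells for no effect and reference antibiotic for full effect; stock transfer was 100 nL into about 80 µL; one replicate is shown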
# Autofluor counter: flagged as autofluorescent in microsphere protease counterscreen. compound autofluorescence counterscreen, microsphere flow cytometry; active compounds read high. fluorescence intensity (concentration not given with the values). 3.1% of 360,000 active. AID 624483;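 active = at least 3 SD above the mean of all compounds, about 16000 in these data; inconclusive = too few beads counted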;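 also: 100 nL of 1 mM stock went into each well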
# PrP UTR inh: inhibition of PrP 5' UTR reporter expression; cell-based PrP 5' UTR mRNA reporter, plate reader; inhibition, % (no concentration beside the values); 0.35% of 340,000 active;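 active = every replicate at 50% or more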;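 also: 0 = median of the neutral control wells; tested in H4 reporter cells; numbers are from one replicate; inactives centre near -14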
# ugtP null kill: growth inhibition of ugtP-null S. aureus, primary screen, RN4220 ugtP deletion, OD600; 0.54% of 330,000 active; growth inhibition, % (concentration not given with the values); 16 h; some inactives read as strong as hits; AID 1259309, 2017;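 active = z-score under -3 and OD600 up to 0.15 on both plates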;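 also: plate controls were untreated wells for no effect and antibiotic for full effect; wells of about 80 µL received 100 nL stock; the first replicate is given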
# Mtb hypoxia rep: PubChem AID 1159583. M. tuberculosis hypoxia-regulated fluorescent reporter, fluorescence. 0.1% of 300,000 active. fluorescence inhibition, % (test concentration not listed);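 active = 35 to 45% if threefold the growth effect, above 45% if 1.5-fold the growth effect; inactive = the rest, general growth blockers included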;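 also: wells of about 50 µL received 100 nL stock; 0% = vehicle wells and 100% = reference inhibitor wells; whole bacteria with a GFP reporter of the hypoxia response; strong numbers were not always called active; many hits fall short of the cut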
# Mtb hypoxia rep growth: recorded beside Mtb hypoxia rep, whose call it bears; growth inhibition, %; measured here: M. tuberculosis growth (absorbance);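 0% = vehicle and 100% = reference antibiotic; read after six days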
# * hit, by the source's call; ? = inconclusive; nt = not tested or not shown.
SMILES,BJeLR viability,RN4220 kill,Autofluor counter,PrP UTR inh,ugtP null kill,Mtb hypoxia rep,Mtb hypoxia rep growth
CC(C)CNC(=O)c1cccc(NC(=O)CSc2ccc(Cl)cc2)c1,12.7,3.6,2564,-23.4,-8.0,10.9,6.2
CCCCc1noc2c1/C(=N\O)CC(c1ccccc1)C2 (stereo not given),4.5,nt,4868,-46.9,nt,nt,nt
COc1cnc(-c2ccccn2)nc1N(C)C,-7.8,6.8,5042,-42.3,-1.0,23.5,33.6
COc1ccc(Cl)cc1Nc1nc(-c2sc(NC(=O)c3ccco3)nc2C)cs1,7.4,4.8,3917,-24.1,33.9,-0.3,-1.4
CCOC(=O)N1CCN(C(=O)CNC(=O)c2ccc(Cl)cc2)CC1,-5.5,-1.5,4618,-21.8,8.7,12.4,6.8
O=C(c1ccccc1)c1nccn1-c1ccc(Cl)nn1,4.7,2.2,6843,-23.7,3.9,6.5,-1.7
COCCNC(=O)N1C2CCC1C(C(=O)OC)=C(c1ccc(-c3ccccc3)c(F)c1)C2 (stereo not given),nt,-4.7,nt,nt,-13.7,-4.6,1.8
Cc1cc(NC(=O)CSc2nc3c([nH]c4ccccc43)c(=O)n2-c2ccccc2F)no1,-12.3,5.5,5968,-6.0,-6.0,4.3,-13.0
Cc1ccccc1NC(=S)N1CCN(C(=O)c2ccco2)CC1,21.8,2.4,2207,-2.0,7.0,8.5,3.2
O=C(COc1ccccc1)Nc1nnc(C23CC4CC(CC(C4)C2)C3)s1,1.7,4.0,4733,-17.5,14.6,7.1,5.7
CC(=O)N1c2ccccc2C(C)(c2ccccc2)CC1(C)C (stereo not given),-7.7,12.4,3452,-11.4,19.7,nt,nt
COc1c(C=NNS(=O)(=O)c2ccc(C)cc2)c(CCN(C)C(C)=O)cc2c1OCO2,nt,5.2,nt,nt,-0.5,-7.2,1.1
Cc1ccc(S(=O)(=O)CC(c2ccccc2)N2CCOCC2)cc1 (stereo not given),4.6,3.3,7954,-1.3,5.0,12.5,3.2
CCCCCCCCCCC(=O)NNC(=O)c1c(O)c2ccccc2n(CC)c1=O,-0.6,96.9*,nt,nt,98.8*,2.2,-8.4
COc1ccc(S(=O)(=O)Nc2cc(Sc3ncn[nH]3)c(O)cc2C)cc1,nt,0.7,3522,nt,-6.5,10.4,-3.6
CCC(C)NC(=O)c1c(N)n(N=Cc2cccnc2)c2nc3ccccc3nc12 (stereo not given),nt,12.6,nt,nt,-11.1,-13.9,-7.2
Cc1cccc(NC(=O)C(C)Sc2nc3ccccc3c(=O)n2CCCN2CCOCC2)c1 (stereo not given),nt,0.5,18006*,-17.4,8.4,-1.7,-3.2
O=C(CCN1C(=O)/C(=C/c2ccccc2Cl)SC1=S)NC1C=CS(=O)(=O)C1 (stereo not given),-0.7,8.6,5303,-11.1,-1.0,-1.1,4.9
CCOc1ccc(C(=O)CCC(=O)Nc2ccc(C)cn2)cc1,-1.1,-1.2,6132,-14.4,4.3,3.8,-2.5
Cc1noc2ncnc(Sc3ccc(Cl)cc3)c12,-4.2,2.8,2075,-1.3,-2.8,nt,nt
CCCCCCCn1c(=O)c(C(=O)OC)c(N)c2ccccc21,-1.2,2.3,3862,-19.5,-15.5,1.4,0.5
O=C(CSc1ncccn1)NN=C1CCCCCCC1,4.0,4.8,2495,-3.2,-1.5,9.5,4.9
COc1cccc(-c2noc(-c3ccc4c(c3)OCO4)n2)c1,4.4,5.7,4253,-5.7,2.4,5.7,-2.2
S=C(NCc1ccco1)N1CCN(c2nc(-c3ccc(Cl)cc3)cs2)CC1,4.3,-1.9,4644,1.6,-12.3,9.5,-1.2
COC(=O)C1=C(C)N(Cc2ccco2)C(=O)C1,-4.5,3.5,4611,-17.2,-3.9,nt,nt

# Later entries
SMILES,BJeLR viability,RN4220 kill,Autofluor counter,PrP UTR inh,ugtP null kill,Mtb hypoxia rep,Mtb hypoxia rep growth
CCSC1=C(C#N)C(c2ccc(C)s2)CC(=O)N1 (stereo not given),6.9,4.7,8481,8.3,-3.1,0.9,3.3
Cn1cccc1CC(=O)NNC(=S)Nc1ccc(Cl)cc1,0.6,nt,1991,-21.2,nt,nt,nt
COc1ccc(N(Cc2cc3cc(C)ccc3[nH]c2=O)C(C)=O)cc1,4.8,7.8,4164,-17.8,0.7,8.5,5.0
Cc1ccc(C(C(=O)NC2CCCC2)N(Cc2ccc(F)cc2)C(=O)c2csnn2)o1 (stereo not given),1.4,9.1,3078,-12.4,6.2,1.4,1.8
O=C(Cc1ccccc1Cl)N1CCN(c2ccccn2)CC1,3.7,15.1,4323,-6.4,5.6,1.8,6.3
CN(C)/C=C(\c1cnc(Cl)s1)S(=O)(=O)c1ccccc1,2.8,9.3,4988,-14.7,-4.2,14.0,6.3
O=C(NCCc1ccc(Cl)cc1)C1CCCN(S(=O)(=O)N2CCCCCC2)C1 (stereo not given),3.5,8.5,4409,-3.3,12.7,-7.5,-0.8
COc1cc(NC(=O)CN2C(=O)NC(CC(C)C)C2=O)cc(OC)c1OC (stereo not given),nt,3.5,3979,-9.7,1.9,-3.6,3.0
CCCC1(CCC)NC(=O)N(CC(=O)Nc2cccc(OC)c2)C1=O,-6.7,-0.2,4667,-9.9,0.6,nt,nt
Fc1ccc(-c2n[nH]c(=S)c3ccccc23)cc1,2.7,7.4,4050,-18.1,6.6,6.0,8.5
CCOC(=O)c1cc(NC(=O)c2c(C)noc2C)cc(C(=O)OCC)c1,nt,8.1,10909,14.0,0.8,5.8,15.3
N#Cc1nc(-c2ccccc2Cl)oc1N1CCCCC1,-2.7,0.2,2131,-24.9,-4.9,nt,nt
O=C1CCN(CCc2ccccc2)CCN1CCO,3.6,-13.2,3534,-12.5,-4.8,2.7,11.3
COc1cc(NC(=O)c2ccccc2[N+](=O)[O-])ccc1NC(=O)C(C)C,2.0,2.9,10363,18.2,9.4,1.6,5.6
Cc1cc(S(=O)(=O)n2[nH]c(=O)c(CCO)c2C)c(Cl)cc1Cl,0.6,-1.7,?,2.9,-5.9,-5.9,-2.6
COc1cccc(NC(=O)N2CCCC2C(=O)NC(C)C)c1 (stereo not given),3.5,6.5,10741,-31.2,-7.4,5.4,4.7
O=C(CSc1ncnc2sc(-c3ccccc3)cc12)NC1CCS(=O)(=O)C1 (stereo not given),-11.9,4.1,2334,-13.8,1.6,13.4,14.3
CSCCC(NC(=O)c1cccc(C)c1)C(=O)OCN1C(=O)c2ccccc2C1=O (stereo not given),-12.7,4.2,?,-16.6,7.6,4.7,-3.0
Clc1ccccc1CNc1ncnc2nc[nH]c12,4.6,1.4,5649,-2.0,7.3,9.6,-0.9
CCc1ccc(-n2c(C)cc(/C=N/NC(=O)OC)c2C)cc1,-1.1,nt,2417,-10.0,nt,nt,nt
CC(=O)Nc1ccc(S(=O)(=O)Nc2ccc(S(=O)(=O)Nc3nccs3)cc2)cc1,-4.7,4.7,3810,-11.8,-0.6,-4.1,6.6
O=C(O)c1cccc(CN2C(=O)c3ccccc3C2=O)c1,-1.4,0.3,3183,-12.2,4.9,-0.6,-13.0
CCn1nnc(NC(=O)c2c(OC)cccc2OC)n1,-2.2,0.4,8727,-7.4,0.4,7.2,7.6
O=C(c1cccc(S(=O)(=O)NCc2ccccc2)c1)N1CCN(Cc2ccccc2)CC1,-4.1,0.4,5205,-36.1,9.6,nt,nt
CCCCn1c(N)c(N(CCOC)C(=O)c2cc3c(s2)CCC(C)C3)c(=O)[nH]c1=O (stereo not given),4.4,0.7,?,-9.2,1.3,9.2,0.5

# Continuation.
SMILES,BJeLR viability,RN4220 kill,Autofluor counter,PrP UTR inh,ugtP null kill,Mtb hypoxia rep,Mtb hypoxia rep growth
COC(=O)C(NC(=O)c1ccccc1)C(C)O (stereo not given),nt,8.2,nt,nt,2.1,17.0,4.9
CCOC(=O)/C=C1\SC(C)C(=O)N1CC(=O)N(CCC#N)c1ccccc1 (stereo not given),nt,6.1,nt,nt,12.9,1.0,-3.6
C[C@H](N)c1nnc(SCC(=O)N(C)C)o1,-4.2,0.6,20911*,-11.1,-0.9,1.0,2.3
Cc1cccc([C@@H]2[C@@H]3C(=O)N(Cc4ccccc4)C(=O)[C@@H]3[C@]3(Cc4ccccc4)C(=O)N(c4cccc(F)c4)C(=O)N23)c1,2.5,nt,3628,-16.5,nt,nt,nt
CCCn1nc(NC(=O)C2CCCO2)c2cc3ccc(C)cc3nc21 (stereo not given),-0.3,3.1,4534,-5.8,-3.3,3.5,6.4
CC(C)CC[n+]1ccccc1/C=C/c1ccc(N(C)C)cc1,47.6,9.9,10843,-11.0,21.6,18.7,6.1
Cc1ccc2c(c1)c1c(n2CC(O)Cn2nc(C)c(Br)c2C)C(=O)CCC1 (stereo not given),-3.7,11.2,2438,-3.4,-9.0,-1.1,0.4
CCC(CC)=NNc1ccc(S(N)(=O)=O)cc1[N+](=O)[O-],9.6,3.7,4706,-10.1,6.6,7.9,-9.6
CCOc1ccc(-c2cc(C(=O)NCCCN3CCOCC3)c3ccccc3n2)cc1,5.8,-3.4,5785,-4.8,7.7,8.1,9.4
Cc1ccc(S(=O)(=O)N(CC(=O)Nc2ccc(F)cc2)C(=O)N2CCN(C)CC2)cc1,-8.3,0.9,4832,-20.4,2.3,2.7,6.9

# Pulled by compound from the list above, two records:
SMILES,BJeLR viability,RN4220 kill,Autofluor counter,PrP UTR inh,ugtP null kill,Mtb hypoxia rep,Mtb hypoxia rep growth
C[C@H](N)c1nnc(SCC(=O)N(C)C)o1,-4.2,0.6,20911*,-11.1,-0.9,1.0,2.3
Cc1cccc([C@@H]2[C@@H]3C(=O)N(Cc4ccccc4)C(=O)[C@@H]3[C@]3(Cc4ccccc4)C(=O)N(c4cccc(F)c4)C(=O)N23)c1,2.5,nt,3628,-16.5,nt,nt,nt

# Structural class: the entries above with an aryl methoxy group (11)
SMILES,BJeLR viability,RN4220 kill,Autofluor counter,PrP UTR inh,ugtP null kill,Mtb hypoxia rep,Mtb hypoxia rep growth
COc1cnc(-c2ccccn2)nc1N(C)C,-7.8,6.8,5042,-42.3,-1.0,23.5,33.6
COc1ccc(Cl)cc1Nc1nc(-c2sc(NC(=O)c3ccco3)nc2C)cs1,7.4,4.8,3917,-24.1,33.9,-0.3,-1.4
COc1c(C=NNS(=O)(=O)c2ccc(C)cc2)c(CCN(C)C(C)=O)cc2c1OCO2,nt,5.2,nt,nt,-0.5,-7.2,1.1
COc1ccc(S(=O)(=O)Nc2cc(Sc3ncn[nH]3)c(O)cc2C)cc1,nt,0.7,3522,nt,-6.5,10.4,-3.6
COc1cccc(-c2noc(-c3ccc4c(c3)OCO4)n2)c1,4.4,5.7,4253,-5.7,2.4,5.7,-2.2
COc1ccc(N(Cc2cc3cc(C)ccc3[nH]c2=O)C(C)=O)cc1,4.8,7.8,4164,-17.8,0.7,8.5,5.0
COc1cc(NC(=O)CN2C(=O)NC(CC(C)C)C2=O)cc(OC)c1OC (stereo not given),nt,3.5,3979,-9.7,1.9,-3.6,3.0
CCCC1(CCC)NC(=O)N(CC(=O)Nc2cccc(OC)c2)C1=O,-6.7,-0.2,4667,-9.9,0.6,nt,nt
COc1cc(NC(=O)c2ccccc2[N+](=O)[O-])ccc1NC(=O)C(C)C,2.0,2.9,10363,18.2,9.4,1.6,5.6
COc1cccc(NC(=O)N2CCCC2C(=O)NC(C)C)c1 (stereo not given),3.5,6.5,10741,-31.2,-7.4,5.4,4.7
CCn1nnc(NC(=O)c2c(OC)cccc2OC)n1,-2.2,0.4,8727,-7.4,0.4,7.2,7.6

# High-throughput results: PubChem BioAssay, several laboratories
